High-throughput results (PubChem BioAssay)
ClpP mod – qHTS Assay for Activators of ClpP | purified B. subtilis ClpP, FRET peptide cleavage, 20 min | Potency, µM (titrated, usually from 57.5 µM), for the others: top-dose activity change, negative = active | AID 651965, 2013 | ATP-dependent Clp protease proteolytic subunit (Bacillus subtilis (strain 168)), P80244 | actives 1.9% (n = 340,000); active = well fitted falling curve with a large enough effect; inconclusive = small, poorly fitted or top-dose-only effect; inactive = no such curve, though single readings can be large or run the other way; also: potency is read from the fitted curve at half-maximal effect; the source files actives as falling curves though it sought activators and does not explain the sign; nearly all actives have a fitted effect of over 65% in size; many hits overshoot -100%
Target sequence (P80244 whole entry, looked up): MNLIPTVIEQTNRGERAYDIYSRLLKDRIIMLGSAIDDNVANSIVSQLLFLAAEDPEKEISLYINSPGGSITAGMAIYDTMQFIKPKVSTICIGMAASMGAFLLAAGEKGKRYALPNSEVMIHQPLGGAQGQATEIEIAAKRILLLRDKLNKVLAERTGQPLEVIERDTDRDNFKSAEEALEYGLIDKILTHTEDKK
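FRET quenching reversal measured ClpP activation: 10 microg/mL B. subtilis ClpP at pH 8 with the FRET-FV decapeptide, read at 430 nm after 320 nm excitation. The 20-min minus 0-min signal was scaled between DMSO/no-enzyme wells and ADEP (5.8 microM final).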
TRPML1 blocker – inhibitors of human TRPML1 channel | Q9GZU1 | TRPML1-inducible cells, Ca2+ dye fluorescence, FDSS; stronger effect = lower value; inhibition of EC80 agonist-evoked calcium signal | activity change, negative = inhibition, % (concentration not given with the values) | actives 0.02% (n = 390,000) | AID 624415; in the data active means activity change below about -50%; inconclusive means about -30% to -50%; inactive means above about -30%;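 also: stimulus is agonist 54-4 at its EC80 concentration; % is scaled to controls: 0 for no effect and ±100 for the full control effect; compound concentration not given in the record; the text of the record puts the active cut at -80%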
Target sequence (Q9GZU1 whole entry, looked up): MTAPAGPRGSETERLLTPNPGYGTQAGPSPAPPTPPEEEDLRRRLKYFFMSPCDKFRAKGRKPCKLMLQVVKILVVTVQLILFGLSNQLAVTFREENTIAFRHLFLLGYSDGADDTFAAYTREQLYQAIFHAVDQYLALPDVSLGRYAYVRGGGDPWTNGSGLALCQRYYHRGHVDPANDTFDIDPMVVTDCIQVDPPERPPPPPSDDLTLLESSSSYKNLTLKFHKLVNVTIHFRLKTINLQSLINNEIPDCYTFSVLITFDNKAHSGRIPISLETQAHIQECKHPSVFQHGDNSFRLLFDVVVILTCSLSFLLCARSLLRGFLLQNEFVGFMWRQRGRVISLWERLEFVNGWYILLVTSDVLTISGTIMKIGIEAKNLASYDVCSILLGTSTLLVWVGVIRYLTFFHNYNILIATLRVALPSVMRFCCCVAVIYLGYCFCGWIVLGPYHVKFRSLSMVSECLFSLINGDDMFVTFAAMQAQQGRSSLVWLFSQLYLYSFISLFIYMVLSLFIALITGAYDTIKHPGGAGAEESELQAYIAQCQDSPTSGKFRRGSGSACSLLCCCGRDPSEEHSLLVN
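TRPML1-DL cells, Tet-induced overnight (~16 h, 37 °C) at 1,500 cells/well, were loaded with Ca8 no-wash dye plus quencher for 45-90 min at room temperature. Compounds were pinned during FDSS kinetic reading; agonist 54-4 at EC80 (4 uM final) then added.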
TRPML1 agonist – agonists of human TRPML1 channel; Q9GZU1; TRPML1-expressing cells, Ca2+ dye fluorescence, FDSS; host cell line not named in the record; reference of the full effect not given here; activation, % (no concentration beside the values); actives 0.12% (n = 410,000); AID 624414; in the data active = activation above about 50%; inconclusive = about 30% to 50%; inactive = below about 30%; also: 0% is about no effect; the text of the record puts the active cut at 80%
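Cells: TRPML1-DL, 1X Tet inducer, ~16 h at 37 degrees C/5% CO2. Dye: ABD Ca8 no-wash + quencher, 45-90 min RT. Read: 10 s baseline, compound add, 110 s agonist phase; 54-4 EC80 (4uM final), 110 s antagonist phase.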
gsp antagonist – antagonizes gsp, the McCune-Albright syndrome mutation; gsp-mutant cells, cAMP HTRF, 30 min; control for the full effect not named in the record; Potency, µM (titrated, usually from 76.9 µM), for the others: at the highest dose activity change, negative = inhibition, hits mostly inhibitors; actives 0.4% (n = 340,000); active = falling curve of any shape with a large fitted effect; inconclusive = falling curve, mostly with a smaller effect; inactive = flat or rising curve; cell line not stated here;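 also: intracellular cAMP measured with PDE inhibitor Ro 20-1724 present during compound exposure; potency is read from the fitted curve at half-maximal effect; % is scaled to controls: 0 for no effect and ±100 for the full control effect; nearly all actives have a fitted effect of over 65% in size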
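Measurement of cellular cAMP by homogeneous time-resolved fluorescence following a 30 min compound exposure at 37C. The PDE inhibitor […] was present throughout; the assay buffer was DPBS with 0.05% BSA and 0.005% Tween 20.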
Menin-MLL FL inh – displaces fluorescein MLL peptide from human menin. Fluorescence polarization, fluorescein-MLL peptide displacement from menin. FP activity change, % at 61.4 µM. 290,000 tested, under 10 active; inconclusive = falling polarisation curve, or a change in total fluorescence; inactive = total fluorescence flat and polarisation flat or rising; no compound was filed as active; the % refers to the polarisation; negative = inhibition;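 also: % of control where 0% means no effect; inhibitors lower the polarisation; unlabelled MLL peptide was the positive control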
gsp agonist – activates gsp, the McCune-Albright syndrome mutation; Potency, µM (highest dose often 76.9 µM), without a hit: top-dose activation (cAMP increase), usual class: activators; actives 0.13% (n = 340,000); gsp mutant cells, cAMP HTRF, 30 min; control for the full effect not named in the record; AID 624287; active = well fitted activation curve with a large enough effect; inconclusive = small, poorly fitted or top-dose-only effect, or another doubt; inactive = no such curve, though single readings can be large or run the other way; cell line not stated here;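 also: phosphodiesterase inhibitor Ro 20-1724 added with compounds to block cAMP breakdown; potency is read from the fitted curve at half-maximal effect; nearly all actives have a fitted effect of over 60% in size; about a fifth of the inactives were tested at one dose only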
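Cells in DMEM/10% FBS with G418 were pretreated with compounds in DMSO plus […] (300 uM stock) for 30 min at 37C. cAMP was measured by HTRF (cAMP-d2 plus anti-cAMP antibody-K) after 30 min at room temperature.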
The depositor's hits bear a star; [ ] = remark or other dose.

CNc1ccc(S(=O)(=O)NC)cc1[N+](=O)[O-] was read as ClpP mod -4.4%, TRPML1 blocker 1, TRPML1 agonist 0.0, gsp antagonist -5%, Menin-MLL FL inh -0.2 and gsp agonist 5%.
For O=C(O)CCC1COc2ccccc2O1 (configuration not stated) the results were ClpP mod -3.9%, TRPML1 blocker 7, TRPML1 agonist 0.2, gsp antagonist 4%, Menin-MLL FL inh -2.2 and gsp agonist 7%.
`COC(=O)Cn1c(=NC(=O)CN2C(=O)CCC2=O)sc2cc(S(N)(=O)=O)ccc21` gave ClpP mod -6.8%, TRPML1 blocker 18, TRPML1 agonist -0.2, gsp antagonist 11%, Menin-MLL FL inh 6.1 and gsp agonist -2%.
`c1nc2nc3c(c(N4CCOCC4)n2n1)CCCC3` gave ClpP mod -1.1%, TRPML1 blocker 8, TRPML1 agonist 0.0, gsp antagonist -5%, Menin-MLL FL inh -6.7 and gsp agonist 4%.
CCN(CC)S(=O)(=O)c1cc(NC(=O)CCn2[nH]c(=O)ccc2=O)ccc1C was read as ClpP mod -1.2%, TRPML1 blocker 27, TRPML1 agonist 1.5, gsp antagonist 8% and gsp agonist 18%.
`O=C(COc1nnc2ccccn12)N1CCN(S(=O)(=O)c2ccccc2)CC1` gave ClpP mod 32µM*, TRPML1 blocker 24, TRPML1 agonist 2.1, gsp antagonist 6% and gsp agonist 18%.
For CCCOC(=O)C1=C(C)NC2=C(C(=O)CCC2)C1c1cccc(OC)c1OC (configuration not stated) the results were ClpP mod 25µM*, TRPML1 blocker 2, TRPML1 agonist -0.3, gsp antagonist -16%, Menin-MLL FL inh 2.9 and gsp agonist -52%[inhibitor].
`O=C(Nc1cccc(F)c1)c1cc(S(=O)(=O)N2CCOCC2)ccc1N1CCCC1` gave ClpP mod 0.5%, TRPML1 blocker 2, TRPML1 agonist -0.5, gsp antagonist -17% and gsp agonist -7%.
`Cc1ccc(CNC(=O)C(C)n2c(=O)cc(-c3ccccc3)c3c(C)nn(C)c32)cc1` (configuration not stated) gave ClpP mod 4.1%, TRPML1 blocker -1 and TRPML1 agonist 1.1.
Screening C[C@]12C=CC(=O)C=C1CC[C@@H]1[C@@H]2[C@@H](O)C[C@@]2(C)[C@H]1CC[C@]2(O)C(=O)CO returned ClpP mod -0.5%, TRPML1 blocker 1, TRPML1 agonist -0.3, gsp antagonist -1% and Menin-MLL FL inh -2.2.
For CCOC(=O)c1ccc(N=CC2=C(O)CC(C)(C)CC2=O)cc1 the results were ClpP mod -3.7%, TRPML1 blocker 12, TRPML1 agonist 1.4, gsp antagonist 5%, Menin-MLL FL inh 2.4 and gsp agonist 8%.
`COc1ccc(OC)c(NC(=O)CCc2c(C)nc3c(c(C)nn3C(C)(C)C)c2C)c1` gave ClpP mod -1.1%, TRPML1 blocker -2 and TRPML1 agonist 4.6.
For Cc1cc(C(=O)OCC(=O)c2ccc(Cl)c([N+](=O)[O-])c2)c2cccc(C)c2n1 the results were ClpP mod -2.1%, TRPML1 blocker 15, TRPML1 agonist 0.0, gsp antagonist 2%, Menin-MLL FL inh 1.8 and gsp agonist -2%.
For COc1ccc(NC(=O)Nc2ccc3c(c2)C(=O)N([C@H](C)CO)C[C@H](C)[C@@H](CN(C)C(=O)Nc2c(C)noc2C)O3)cc1 the results were ClpP mod 0.5%, TRPML1 blocker 6, TRPML1 agonist -0.7, gsp antagonist -5% and gsp agonist inconclusive.
`COc1cccc(CN(C)C(=O)c2cc(S(=O)(=O)NC3CCCCC3)ccc2C)c1` gave ClpP mod 1.4%, TRPML1 blocker 16, TRPML1 agonist 0.4, gsp antagonist 4% and gsp agonist -1%[15.4 µM].
For COc1ccc(CNc2nc3ccccc3n2C(C)C)cc1 the results were ClpP mod 1.7%, TRPML1 blocker -2, TRPML1 agonist 0.2, gsp antagonist -6%, Menin-MLL FL inh 0.6 and gsp agonist -5%.
O=C1C2=C(c3ccccc31)[N+](=O)[C@@H]1CCCC[C@@H]1N2[O-] was read as ClpP mod -12%, TRPML1 blocker -1, TRPML1 agonist 0.3, gsp antagonist 4%, Menin-MLL FL inh 0.5 and gsp agonist inconclusive.
For COc1ccccc1/C=N/NC(=O)c1cccc(OC(F)(F)C(F)F)c1 the results were ClpP mod 0.9%, TRPML1 blocker -11, TRPML1 agonist 0.3, gsp antagonist -12% and gsp agonist 5%.
`CN1CCN(c2ccc(C(CC(N)=O)NC(=O)c3ccccc3)cc2[N+](=O)[O-])CC1` (configuration not stated) gave ClpP mod 0.9%, TRPML1 blocker 4, TRPML1 agonist 0.1, gsp antagonist 8% and Menin-MLL FL inh -3.1.
`CN1CCN(C(=O)c2ccc3c(=O)n(Cc4ccc(Cl)cc4)c(=S)[nH]c3c2)CC1` gave ClpP mod -0.4%, TRPML1 blocker -5, TRPML1 agonist 0.4, gsp antagonist 7%, Menin-MLL FL inh 1.3 and gsp agonist -21%.
Screening CCCCCC(=O)Nc1cc(S(=O)(=O)N2CCOCC2)ccc1Oc1ccc(OCC)cc1 returned ClpP mod -2.0%, TRPML1 blocker 9, TRPML1 agonist -0.2, gsp antagonist -3% and gsp agonist 6%.
`O=S(=O)(CCc1nnc(-c2ccc(Br)cc2)o1)c1ccc(Cl)cc1` gave ClpP mod 1.5%, TRPML1 blocker 14, TRPML1 agonist -0.8, gsp antagonist 3%, Menin-MLL FL inh 2.9 and gsp agonist -7%.
For COc1ccc(C(=O)C2CCCN(C(=O)c3ccc(CSC)o3)C2)cc1F (configuration not stated) the results were ClpP mod 1.4%, TRPML1 blocker -10, TRPML1 agonist -0.9, gsp antagonist -9% and gsp agonist 6%[15.4 µM].
O=C(NC(CC(=O)N1CCN(c2ccc([N+](=O)[O-])cc2)CC1)c1ccccc1)c1ccccc1Cl (configuration not stated) was read as ClpP mod -1.4%, TRPML1 blocker 10, TRPML1 agonist 1.7, gsp antagonist -5%, Menin-MLL FL inh 6.7 and gsp agonist -22%.
For CSc1sc(C(=O)NN)c2c1C1(CCC2)SCCS1 the results were TRPML1 blocker 22, TRPML1 agonist 0.1, gsp antagonist -5%, Menin-MLL FL inh 3.7 and gsp agonist -8%.
For Cc1cc(C)c(S(=O)(=O)/N=C2\C=C(NS(=O)(=O)c3ccccc3)C(=O)c3ccccc32)c(C)c1 the results were ClpP mod -1.1%, TRPML1 blocker -14, TRPML1 agonist 4.8, gsp antagonist 4%, Menin-MLL FL inh -5.8 and gsp agonist -17%.
For Cc1sc2ncn(CC(=O)NCCCC(=O)N3CCC(C(N)=O)CC3)c(=O)c2c1C the results were TRPML1 blocker -9, TRPML1 agonist 0.0, gsp antagonist -2%, Menin-MLL FL inh -1.6 and gsp agonist 20%[15.4 µM].
`COc1ccc(/C(N)=N/O)c(OC)c1` gave TRPML1 blocker 3, TRPML1 agonist 0.7, gsp antagonist 10%, Menin-MLL FL inh 4.9 and gsp agonist 2%.
CCCN1CNC(=S)N(c2ccccc2C)C1 was read as TRPML1 blocker -1, TRPML1 agonist -0.7, Menin-MLL FL inh -2.4 and gsp agonist 0%[15.4 µM].
`CC(C)CC1=NN(C(=O)c2ccncc2)C(O)(C(F)(F)F)C1` (configuration not stated) gave ClpP mod 1.0%, TRPML1 blocker -5, TRPML1 agonist -0.3, gsp antagonist -3%, Menin-MLL FL inh 7.4 and gsp agonist -2%[15.4 µM].
Cc1nn(-c2ccccc2)c(C)c1CNC(=O)c1ccc(S(=O)(=O)NCc2ccco2)cc1 was read as TRPML1 blocker 6, TRPML1 agonist 4.2, gsp antagonist -4% and gsp agonist inconclusive.
For O=C(Cn1cnc2c(cnn2-c2ccccc2)c1=O)NCc1ccccc1 the results were ClpP mod -9.8%, TRPML1 blocker 8, TRPML1 agonist -0.2, gsp antagonist 7%, Menin-MLL FL inh 2.5 and gsp agonist -1%.
Cc1cc2ccccc2n1CCNC(=O)c1ccc(S(=O)(=O)N2CCCCC2)cc1 was read as ClpP mod 0.3%, TRPML1 blocker 27, TRPML1 agonist 1.2, gsp antagonist -3%, Menin-MLL FL inh 2.5 and gsp agonist -4%.
`CCO[C@H]1OC(C(=O)NCc2ccccc2)=C[C@@H](c2ccc(C(F)(F)F)cc2)[C@@H]1CCCO` gave ClpP mod 3.4%, TRPML1 blocker 21, TRPML1 agonist -0.3, gsp antagonist -20%, Menin-MLL FL inh 0.9 and gsp agonist -1%.
`Cc1ccc(-n2c(=S)[nH]c3sc4c(c3c2=O)CCC4)cc1` gave TRPML1 blocker -15, TRPML1 agonist -0.9, gsp antagonist 12%, Menin-MLL FL inh -0.8 and gsp agonist 55%[15.4 µM].
Cc1ccc(C)c2[nH]c(=O)c(C(c3nnnn3C(C)(C)C)N3CC=C(c4ccc(F)cc4)CC3)cc12 (configuration not stated) was read as ClpP mod -21%, TRPML1 blocker 0, TRPML1 agonist 0.5, gsp antagonist -9%, Menin-MLL FL inh 6.9 and gsp agonist -29%.
Screening CCOC(=O)c1cc(CC)sc1NC(=O)c1cccc(N2C(=O)CCC2=O)c1 returned ClpP mod 0.6%, TRPML1 blocker 38, TRPML1 agonist -0.3, gsp antagonist 10%, Menin-MLL FL inh -1.3 and gsp agonist -1%.
For Cc1ccc(NC(=O)COC(=O)c2ccc(-n3nc(C)cc3C)cc2)c(F)c1 the results were TRPML1 blocker 15, TRPML1 agonist 3.0, gsp antagonist -4% and gsp agonist 3%[15.4 µM].
Nc1ccccc1SC1CC(=O)N(Cc2ccccc2)C1=O (configuration not stated) was read as TRPML1 blocker -3, TRPML1 agonist -0.2, gsp antagonist 5%, Menin-MLL FL inh 1.0 and gsp agonist 7%[15.4 µM].
Screening Cn1c(=O)oc2cc(S(=O)(=O)NCCC(=O)NCc3ccccc3Cl)ccc21 returned ClpP mod -2.5%, TRPML1 blocker -9, TRPML1 agonist -0.9, gsp antagonist -4% and gsp agonist 18%.
For CCOc1ccccc1N=Nc1c(C)[nH]n(C(N)=S)c1=O the results were TRPML1 blocker 12, TRPML1 agonist -0.8, gsp antagonist 2%, Menin-MLL FL inh inconclusive and gsp agonist -14%[15.4 µM].

Fetched one by one from the list above (two):
`CCO[C@H]1OC(C(=O)NCc2ccccc2)=C[C@@H](c2ccc(C(F)(F)F)cc2)[C@@H]1CCCO` gave ClpP mod 3.4%, TRPML1 blocker 21, TRPML1 agonist -0.3, gsp antagonist -20%, Menin-MLL FL inh 0.9 and gsp agonist -1%.
`Cc1ccc(-n2c(=S)[nH]c3sc4c(c3c2=O)CCC4)cc1` gave TRPML1 blocker -15, TRPML1 agonist -0.9, gsp antagonist 12%, Menin-MLL FL inh -0.8 and gsp agonist 55%[15.4 µM].
